Assay outcomes deposited in PubChem BioAssay by ICCB-Longwood Screening Facility, Harvard Medical School.
HCMV NEC inh = cytomegalovirus nuclear egress complex inhibition; HTRF UL50-UL53 interaction, normalized percent inhibition; inhibition, % (no concentration beside the values); 190,000 tested, 0.15% active;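 active = both replicates at 50% or more, plus weaker picks with an unusually low signal ratio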;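 also: stock transfer was 100 nL into about 20 µL; 0% = negative control wells and 100% = wells with untagged competitor protein; inactives centre near -12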
Sa growth 42C = S. aureus growth inhibition; S. aureus RN4220 growth, OD600, 20 h, 42 °C; hits give low values; relative growth, % (no concentration beside the values); 170,000 tested, 0.53% active;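 active = growth at 42 °C up to 50% and 20 or more points under that at 30 °C, or under 10% at both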;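 also: 300 nL library stock went into each well; scaled to the means of positive and negative controls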
GIV-Gai inh = GIV-Galpha-i interaction inhibition | P08753 | Galpha-i3/FITC-GIV peptide fluorescence polarization, 90 min; hits give low values; scaled: aluminum fluoride 0%, vehicle 100% | percent of control (FP), % (no concentration beside the values) | 210,000 tested, 0.42% active;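 active = replicate mean at 85% of control or lower, very high polarization wells dropped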;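 also: wells of about 15 µL received 100 nL stock; the first replicate is given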
Target sequence (P08753 whole entry, looked up): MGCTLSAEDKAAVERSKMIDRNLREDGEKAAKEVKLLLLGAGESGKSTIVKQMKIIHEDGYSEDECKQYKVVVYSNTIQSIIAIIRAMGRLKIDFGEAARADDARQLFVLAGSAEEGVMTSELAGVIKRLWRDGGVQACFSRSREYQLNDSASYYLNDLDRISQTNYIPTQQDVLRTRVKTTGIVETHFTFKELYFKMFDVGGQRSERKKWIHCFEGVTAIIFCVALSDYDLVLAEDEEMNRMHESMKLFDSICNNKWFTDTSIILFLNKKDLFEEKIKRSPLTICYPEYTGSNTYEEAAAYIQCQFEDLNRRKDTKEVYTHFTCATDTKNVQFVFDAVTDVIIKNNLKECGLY
Sa growth 42C second temp = recorded beside Sa growth 42C, whose call it bears; relative growth, %; measured here: growth at 30 °C;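 optical density after 20 h as mean of two plates; 100% = untreated growth and lower means inhibition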
* hit, by the source's call; · = not tested or not shown; & = joins results of further samples.

structure,HCMV NEC inh,Sa growth 42C,Sa growth 42C second temp,GIV-Gai inh
Cc1cc(/C=C/C(=O)N(C)Cc2ccco2)c(C)n1-c1ccnn1C(C)C,-25,100,96,·
COc1ccc(-c2cc(C)no2)cc1S(=O)(=O)CCC(=O)NC1CCN(Cc2ccccc2)CC1,6,·,·,105
CNc1cn[nH]c(=O)c1Cl,-3,·,·,104
C=CCN(CC=C)c1cc(C)nc2nc(-c3cccnc3)nn12,-13,·,·,136
CCOC(=O)c1c(S(=O)(=O)N2CCC(C(=O)NCc3ccccc3OC)CC2)c(C)n(C)c1C,·,110,88,100
CCCCC(=O)NC1(C(F)(F)F)C(=O)Nc2c1c(=O)[nH]c(=O)n2-c1ccc(F)cc1 (centres undefined),·,109,84,104
S=c1cc(-c2ccccc2)n(Cc2ccco2)c2c1CCCC2,-13,44,2,108
COc1ccc(CCC(=O)Nc2ccc(-c3noc(CCc4ccccc4)n3)cc2)cc1,·,100,90,106
CCOc1ccc(C2NC(=O)NC(C)=C2C(=O)OCc2ccc3c(c2)OCO3)cc1 (centres undefined),-6,·,·,100
CCC(C)NC(=O)CCCn1c(=O)c2cccn2c2ccc(F)cc21 (centres undefined),-7,·,·,101
CCn1c(=O)c(N2CCC(C(=O)NCC3CCCO3)CC2)c(C)n(-c2ccccc2)c1=O (centres undefined),-16,·,·,109
O=C(c1ccco1)n1ccc(-c2cccs2)n1,-16,96,84,96
CC(C)c1ccc(NC(=O)c2ccc(NS(=O)(=O)c3cccs3)cc2)cc1,·,101,61,111
COc1cccc(C2NS(=O)(=O)N=C3CCCCCN32)c1OC(F)F (centres undefined),-14,84,97,·
C#CCn1c(-c2nnc(CC)o2)cc2ccccc21,-18,·,·,104
Cc1cccc(C(=O)N2N=C(c3ccc(Br)cc3)CC2(O)C(F)(F)F)c1 (centres undefined),-15,·,·,109
Cc1cc2nc(CN3CCCc4ccccc43)cc(=O)n2o1,-60,111,98,75*
Cc1ccc(C(=O)Nc2ccc3oc(-c4cc(Br)ccc4Cl)nc3c2)cc1,-58,100,94,101
Cn1c(CNC(=O)c2ccc(F)cc2)cc2ccccc21,-6,95,81,97
CCOc1ccc(-c2nc(C#N)c(NCCOC)o2)cc1,-25,92,90,103

In the list so far, 5 have fluorine:
structure,HCMV NEC inh,Sa growth 42C,Sa growth 42C second temp,GIV-Gai inh
CCCCC(=O)NC1(C(F)(F)F)C(=O)Nc2c1c(=O)[nH]c(=O)n2-c1ccc(F)cc1 (centres undefined),·,109,84,104
CCC(C)NC(=O)CCCn1c(=O)c2cccn2c2ccc(F)cc21 (centres undefined),-7,·,·,101
COc1cccc(C2NS(=O)(=O)N=C3CCCCCN32)c1OC(F)F (centres undefined),-14,84,97,·
Cc1cccc(C(=O)N2N=C(c3ccc(Br)cc3)CC2(O)C(F)(F)F)c1 (centres undefined),-15,·,·,109
Cn1c(CNC(=O)c2ccc(F)cc2)cc2ccccc21,-6,95,81,97

(continued)
structure,HCMV NEC inh,Sa growth 42C,Sa growth 42C second temp,GIV-Gai inh
COC(=O)C1CCN(S(=O)(=O)c2cc3c4c(c2)CC(=O)N4CCC3)CC1,·,107,89,100
Cc1cccc(-c2nc(CN3CCCC(C(=O)NCc4ccc(Cl)cc4)C3)c(C)o2)c1 (centres undefined),-8,120,88,102
Cc1ccc(NC(=O)CCc2cn(Cc3ccc(Cl)cc3)c3ccccc23)c(C)c1,·,107,87,107
COc1ccc(C(=O)Nc2n[nH]c(C(F)(F)F)n2)cc1,-2,99,88,·
COc1cccc(CNCCSc2nnnn2C)c1OCc1ccc(Cl)cc1Cl,12,104,51,108
CCCn1c(CNC(=O)c2ccc(F)cc2)nc2ccccc21,-6,103,93,107
CCn1nc(-n2cnnc2)c(NS(=O)(=O)c2ccc(Br)s2)c1C,-14,·,·,104
CN(C)C(=O)CN1c2ccc(F)cc2-c2ccccc2S1(=O)=O,-5,·,·,105
S=c1[nH]nc(-c2ccccc2)n1C1C=CCCC1 (centres undefined),-12,92,94,100
C=CCOc1ccccc1C1NC(=O)NC(C)=C1C(=O)NCc1ccccc1 (centres undefined),12,99,99,103
O=[N+]([O-])c1c(Nc2ccc(Cl)cc2)cc(N2CCCCCC2)c2nonc12,-6,·,·,107
CCCn1c(N2CCN(C(=O)Nc3ccc(OC)cc3)CC2)nc2ccccc21,8,84,104,106
CC(Oc1ccc(S(=O)(=O)NCc2ccccn2)cc1)C(=O)NC1CCCCC1 (centres undefined),8,83,86,95
CC1CCCN(S(=O)(=O)c2ccc3c(c2)c(=O)nc2ccccn23)C1 (centres undefined),·,96,87,101
Cc1ccc(C)n1-c1ncccc1O,-17,103,89,104
Fc1cc(F)nc(NCc2ccccc2)n1,-17,98,86,99
CCCCc1nn2c(=O)cc(COC(=O)c3ccc(NC(=O)C4CCCCC4)cc3)nc2s1,·,107,93,98
O=C(O)CC12CC3CC(C1)CC(n1cncn1)(C3)C2,-24,88,78,103
O=C(O)CCC(=O)Nc1nc(-c2ccccc2)cs1,-14&-8,86,105,99
O=C(CSc1nc2c(c(=O)[nH]1)CN(Cc1ccc(F)cc1)CC2)Nc1cccc(C(F)(F)F)c1,-18,104,92,103
CC(C)Cn1c(SCC(=O)Nc2ccc3c(c2)OCO3)nc(O)cc1=O,-11,73,88,·
O=C(Cn1c(=O)n(CC2CCCO2)c(=O)c2ccccc21)Nc1cccc(Cl)c1 (centres undefined),-10,101,85,102
CC(NCC(O)C(F)(F)F)c1ccccc1 (centres undefined),9,·,·,105
COC(=O)C(=CC(C)C)C(=O)OC,6,82,102,111
Cc1cccc(C)c1OC(=O)CSc1nnc(-c2ccc3c(c2)OCO3)o1,-21,101,87,102
CC1C(C(=O)Nc2ccccc2)CCCC1(C)C(=O)O (centres undefined),-34,123,96,104
COC(=O)c1ccc(CSc2nc3cc(Cl)ccc3n2Cc2ccccc2)o1,4,111,95,·
CN(C(=O)CSc1nnc2n1CCCCC2)C1(C#N)CCCCC1,-6,102,102,·
Cc1ccc2cc(CN(Cc3cccnc3)C(=O)c3cccnc3)c(=O)[nH]c2c1,-2,54,79,105
CCCNc1nc(Nc2ccccc2)c2cnn(C)c2n1,4,·,·,113
CCCn1c(N)c(N2CCOCC2)c(=O)n(CC(=O)NCc2ccc(F)cc2)c1=O,2,91,98,·
O=C(NCc1cccnc1)c1ccc(Cn2c(SCc3ccc(Cl)cc3)nc3ccncc32)cc1,-17,·,·,102
COc1cc(C(=O)Nc2ccc3nc(NC(C)=O)sc3c2)cc(OC)c1OC,-15,·,·,102
O=C(Nn1c(C2CCCCC2)nc2ccccc2c1=O)c1cc([N+](=O)[O-])cc([N+](=O)[O-])c1Cl,-50,·,·,99
COc1ccc(/C=N/OC(C)=O)c(OC)c1,-13,109,100,107
O=C(N/C(=C/c1ccc(Br)cc1)C(=O)N1CCCC1=O)c1ccco1,-4,107,95,95
O=C(CCc1ccccc1)Nc1ccc(-c2nc3ccccc3o2)cc1,-6,109,88,·
O=C(CSc1n[nH]c(-c2ccccc2)n1)NCC1COc2ccccc2O1 (centres undefined),-11,104,93,·
Cc1ccc(NC(=O)Cn2c(=O)n(Cc3ccc4c(c3)OCO4)c(=O)c3oc4ccccc4c32)cc1C,·,97,80,104
CC1=C(C(=O)OCC2CCCO2)C(c2coc3ccccc3c2=O)C2=C(CCCC2=O)N1 (centres undefined),-21,·,·,97

Three entries out of the list above, sorted by the number in GIV-Gai inh, largest number first:
SMILES,GIV-Gai inh
COC(=O)C(=CC(C)C)C(=O)OC,111
Cc1cccc(C)c1OC(=O)CSc1nnc(-c2ccc3c(c2)OCO3)o1,102
O=C(Nn1c(C2CCCCC2)nc2ccccc2c1=O)c1cc([N+](=O)[O-])cc([N+](=O)[O-])c1Cl,99

(more compounds)
structure,HCMV NEC inh,Sa growth 42C,Sa growth 42C second temp,GIV-Gai inh
N#Cc1cn(Cc2ccccc2)nn1,6,101,85,102
Cc1cc(C)n(CC(=O)NN=C2CCCCCC2)n1,-4,83,98,·
NCCNC12CC3CC(CC(C3)C1)C2,-14,95,85,·
O=C(Cc1ccc(-n2c(=O)[nH]c3ccsc3c2=O)cc1)Nc1ccccc1,-23,97,87,98
CSCCC(NS(=O)(=O)c1ccc2c(c1)oc(=O)n2C)C(=O)NCc1ccccc1 (centres undefined),-24,104,85,103
COc1cc(NC(=O)/C=C/c2ccccc2Cl)c(OC)cc1Cl,-11,104,94,103
O=S1(=O)CC(N2CCCC2)c2ccccc21 (centres undefined),-33,111,91,102
COC(=O)c1sc2cccc(F)c2c1S(=O)(=O)NCc1ccc(Cl)cc1,·,89,83,97
COc1ccc(-c2csc3nc(-c4ccc(C)cc4)oc(=O)c23)cc1OC,-9,114,98,106
CCc1ccc(-c2[nH]nc3c2C(c2ccc(Cl)cc2)C2=C(CC(C)(C)CC2=O)N3)cc1 (centres undefined),-17,·,·,106
COC(=O)C1=C(c2ccccc2)Nc2ncnn2C1c1ccccc1F (centres undefined),-9,105,102,98
CCOc1ccc2[nH]c(=O)c(CN(Cc3ccccc3)C(=O)N3CCOCC3)cc2c1,9,67,81,103
CC(OC(=O)c1cccc(S(C)(=O)=O)c1)C(=O)Nc1ccccc1C#N (centres undefined),6,96,93,·
CC(=O)NC1(c2ccccc2)CCN(CC(=O)Nc2c(C)n[nH]c2C)CC1,-2,114,91,98
Cc1ccc(-c2nc3c(cnn3-c3ccccc3)c(=O)n2-c2ccc(Cl)cc2)cc1,-6,92,91,106
CCCCOC(=O)CSc1nc(N)c(C#N)c(-c2ccc(OCC)cc2)c1C#N,-13,·,·,103
O=S1(=O)c2ccccc2N(Cc2ccccc2Cl)c2ccccc21,·,100,90,95
CN(C)C=NC(=S)c1ccc(-c2cccs2)s1,-46,97,98,112
CC(C)CCNC(=O)N1Cc2c(sc3c2CCCC3)-n2cccc2C1C (centres undefined),-20,·,·,110
O=S(=O)(c1ccccc1)c1nc(-c2ccc(Cl)cc2)oc1NCC1CCCO1 (centres undefined),-8,·,·,105
COc1cc(/C=C/c2nc(C#N)c(NC(C)c3ccccc3)o2)cc(OC)c1OC (centres undefined),-35,99,72,96
Cc1ccc([N+](=O)[O-])c(Oc2ncnc3c2oc2ccccc23)c1,·,90,91,101
Cc1ccc(NCc2nc3ccccc3n2C)c(C)c1,·,115,81,103
Cc1ccc(C)c(OCC(=O)Nc2ccc(-c3nnc(-c4ccco4)o3)cc2)c1,-14,98,39,104
CCOc1ccccc1N1Cc2ccccc2C1,-12,107,92,127
Cc1ccc(S(=O)(=O)N(C)c2ccc3sc(C)nc3c2)cc1,1,121,89,107
COc1cc2c(cc1OC)C(C)N(C(=O)c1cc3c(s1)-c1c(C)cccc1OC3)CC2 (centres undefined),·,104,78,104
O=S(=O)(Cc1ccccc1)CC(O)COc1ccc(OC(F)(F)F)cc1 (centres undefined),·,102,85,98
CCc1ccc(C(=O)c2cn(CC(=O)Nc3ccc(OC)cc3)c3cc4c(cc3c2=O)OCO4)cc1,-27,89,79,102
CC(C)C(NS(=O)(=O)c1ccccc1)C(=O)O (centres undefined),-44,99,86,100
CC(=O)Nc1c(C(=O)O)oc2ccc(Br)cc12,-4,82,94,·
O=C1CCc2cc(S(=O)(=O)NC3CCCCCC3)cc3c2N1CCC3,-12,107,85,103
Oc1ccccc1C=Nc1ccccc1N1CCCCC1,-34,108,91,·
CC1(C)Oc2ccc(C(=O)Nc3ccc4c(c3)CCC4)cc2NC1=O,3,94,88,105
COc1cc(-c2[nH]nc3c2C(c2ccc(C(F)(F)F)cc2)C(C#N)=C(N)O3)cc(OC)c1OC (centres undefined),-5,·,·,104
O=C(CN1C(=O)CCSc2ccccc21)NCc1ccccc1,1,99,77,100
CN(C(=O)Cn1c(=O)n(CCCC(=O)NCc2ccco2)c(=O)c2sccc21)C1CCCCC1,-3,123,89,100
